Source: PubChem
PolyA inhibitor: yeast polyadenylation inhibition | S. cerevisiae SKY197-pL101 polyadenylation reporter, beta-gal luminescence; efflux-impaired pdr1/pdr3 knockout yeast; score 100 = 6 SD above DMSO | calls only at 12 µM | 0.02% of 300,000 active;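 active means lowest replicate activity score at least 50, where 100 means six control SD above control mean; inconclusive means lowest score under 50 but half or more replicates reach 50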;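 further: yeast exposed to compound for 9 h at 30 °C; higher score means more reporter readthrough which indicates perturbed polyadenylation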
GSK3B inh: blocks human GSK3beta kinase activity. P49841. GST-GSK3beta kinase, ADP-Glo luminescence, 60 min; hits give low values. activity score (negative = inhibition), % at 10 µM. 0.038% of 300,000 active;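 active means more than half of replicate wells score below -50%, meaning over 50% inhibition versus plate controls; inconclusive means some replicates but at most half score below -50%; inactive means no replicate scores below -50%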;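 further: 0% = median DMSO wells and -100% = median GW8510 positive control wells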
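Test system – GST-tagged human GSK3beta kinase, cell-free · Incubation – 60 min enzyme reaction, room temperature · Signal – ADP-Glo luminescence · Also added – peptide substrate and ATP at 25 µM · Controls – DMSO neutral wells and GW8510 at 20 µM as positive · Buffer or medium – Tris/MgCl2 kinase buffer · Measure – Luminescence-derived activity versus plate DMSO and GW8510 wells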
GSK3A inh: blocks human GSK-3 alpha kinase; ADP-Glo luminescence, 60 min; 0.1% of 320,000 active; inhibition, % at 10 µM; P49840;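 in the data active means inhibition above about 50%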;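 further: GST-tagged GSK-3 alpha with peptide substrate and 25 µM ATP; 0% = DMSO neutral wells and 100% = GW8510 positive control wells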
Target sequence (P49840 whole entry, looked up): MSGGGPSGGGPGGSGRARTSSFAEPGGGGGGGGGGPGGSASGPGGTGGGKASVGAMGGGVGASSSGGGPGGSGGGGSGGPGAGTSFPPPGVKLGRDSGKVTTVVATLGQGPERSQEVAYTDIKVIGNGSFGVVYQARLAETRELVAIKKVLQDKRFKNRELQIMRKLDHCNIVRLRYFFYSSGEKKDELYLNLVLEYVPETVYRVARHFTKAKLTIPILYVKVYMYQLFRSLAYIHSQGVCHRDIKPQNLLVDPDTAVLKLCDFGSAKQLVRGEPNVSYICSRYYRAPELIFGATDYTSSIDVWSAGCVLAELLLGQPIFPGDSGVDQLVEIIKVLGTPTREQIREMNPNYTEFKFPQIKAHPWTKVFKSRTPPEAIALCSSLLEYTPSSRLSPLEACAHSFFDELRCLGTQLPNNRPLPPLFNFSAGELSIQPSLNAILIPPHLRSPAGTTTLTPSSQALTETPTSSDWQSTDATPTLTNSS
AI-2 QS mod: modulates the Vibrio harveyi AI-2 quorum sensing system. activity change, % at 7.5 µM. Vibrio harveyi JMH597 AI-2 luminescence/OD600 ratio, 9 h; hits give low values; strain lacks LuxN and CqsS sensors; 0 = neutral-control median. 0.4% of 300,000 active; in the data active means activity change below about -75%, passing the limit was not always enough; inconclusive means no clear call, values can overlap the other calls;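 further: luminescence divided by OD600 gain over 9 h not by final OD600 alone; inactives centre near 13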
An asterisk follows results filed as active; i = inactive; ? = inconclusive; . = no result given. The list is partial (hit frequency here may not be typical).

Labels used below – A = PolyA inhibitor; B = GSK3B inh; C = GSK3A inh; D = AI-2 QS mod
canonical_smiles: Cc1nn(CC(=O)O)c(C)c1Cl
  A = i; B = 1; C = 3; D = 18

canonical_smiles: CC(=O)c1nc2ccccc2n1S(=O)(=O)c1ccc(Cl)cc1
  A = i; B = 1; C = -4; D = 34

canonical_smiles: Cc1cn([C@H]2C[C@H](N=[N+]=[N-])[C@@H](CO)O2)c(=O)[nH]c1=O
  A = i; B = 1; C = -4; D = ?

canonical_smiles: CC(=O)O[C@H]1C(=O)[C@@]2(C)[C@H]([C@H](OC(=O)c3ccccc3)[C@]3(O)C[C@H](OC(=O)[C@H](O)C(NC(=O)c4ccccc4)c4ccccc4)C(C)=C1C3(C)C)[C@]1(OC(C)=O)CO[C@@H]1C[C@@H]2O (stereo partly drawn)
  A = i; B = -1; C = 0; D = 8

canonical_smiles: CN(C)c1ccc(N=Nc2ccccc2C(=O)OCC(=O)Nc2ccccc2C(F)(F)F)cc1
  A = i; B = 0; C = .; D = 28

canonical_smiles: Cc1nc(-c2ccccc2)c(-c2ccccc2)[nH]1
  A = i; B = 7; C = 1; D = 13

canonical_smiles: Cc1ccccc1C(=O)c1c[nH]c(C(=O)NCc2ccco2)c1
  A = i; B = -2; C = 1; D = 6

canonical_smiles: CN/C(=C/[N+](=O)[O-])NCCSCc1ccc(CN(C)C)o1
  A = i; B = -2; C = 0; D = 17

canonical_smiles: C[C@@H]1C[C@@H]2O[C@H]2/C=C\C=C\C(=O)Cc2c(Cl)c(O)cc(O)c2C(=O)O1
  A = i; B = 3; C = 0; D = 37

canonical_smiles: NS(=O)(=O)c1ccc(NC(=O)Nc2ccc(C(F)(F)F)cc2)cc1
  A = i; B = -3; C = 0; D = 8

canonical_smiles: Cc1nc2ccc(S(=O)(=O)NCC(=O)NCCN3CCCCCC3)cc2s1
  A = i; B = 3; C = -3; D = 11

canonical_smiles: CCN(CC)CCCCNc1ncc2cc(-c3cc(OC)cc(OC)c3)c(NC(=O)NC(C)(C)C)nc2n1
  A = i; B = -4; C = -3; D = 9

canonical_smiles: CCOc1ccc2nc(S(N)(=O)=O)sc2c1
  A = i; B = 0; C = -4; D = 33

canonical_smiles: N#Cc1c(-c2cccc(Br)c2)cc(-c2ccco2)[nH]c1=O
  A = i; B = 0; C = 1; D = 47

canonical_smiles: NS(=O)(=O)c1ccc(NC(=O)Nc2ccccc2)cc1
  A = i; B = -3; C = -3; D = 13

canonical_smiles: CCc1ccc(NC(=O)Nc2ccsc2C(=O)OC)cc1
  A = i; B = 4; C = 3; D = 12

canonical_smiles: CN1C2CCC1CC(OC(=O)C(CO)c1ccccc1)C2 (stereo not drawn)
  A = .; B = .; C = 0; D = .

canonical_smiles: Nc1ccn([C@@H]2O[C@H](CO)[C@@H](O)C2O)c(=O)n1 (stereo partly drawn)
  A = i; B = 2; C = -3; D = 3

canonical_smiles: Cc1cccc(N2CCN(C(=O)c3cc4c(=O)n(C)c5ccccc5c4n3C)CC2C)c1 (stereo not drawn)
  A = i; B = 2; C = 11; D = 31

canonical_smiles: Cc1nc(-c2ccc(NC(=O)c3cccs3)cc2)cs1
  A = i; B = 1; C = 2; D = 10

canonical_smiles: O=C(O)c1cccc(NC(=O)c2ccc3c(c2)C(=O)N(c2ccccc2)C3=O)c1
  A = i; B = 1; C = 4; D = 10

canonical_smiles: O=C(O)/C=C\C(=O)O
  A = .; B = .; C = -3; D = .

Laid out differently: 2 of the compounds above
compound	PolyA inhibitor	GSK3B inh	GSK3A inh	AI-2 QS mod
Cc1nc(-c2ccccc2)c(-c2ccccc2)[nH]1	i	7	1	13
CC(=O)O[C@H]1C(=O)[C@@]2(C)[C@H]([C@H](OC(=O)c3ccccc3)[C@]3(O)C[C@H](OC(=O)[C@H](O)C(NC(=O)c4ccccc4)c4ccccc4)C(C)=C1C3(C)C)[C@]1(OC(C)=O)CO[C@@H]1C[C@@H]2O (stereo partly drawn)	i	-1	0	8

Copied from the list:
GSK3B inh, Cc1ccccc1C(=O)c1c[nH]c(C(=O)NCc2ccco2)c1 reads -2
GSK3A inh, C[C@@H]1C[C@@H]2O[C@H]2/C=C\C=C\C(=O)Cc2c(Cl)c(O)cc(O)c2C(=O)O1 reads 0
GSK3A inh, CC(=O)O[C@H]1C(=O)[C@@]2(C)[C@H]([C@H](OC(=O)c3ccccc3)[C@]3(O)C[C@H](OC(=O)[C@H](O)C(NC(=O)c4ccccc4)c4ccccc4)C(C)=C1C3(C)C)[C@]1(OC(C)=O)CO[C@@H]1C[C@@H]2O (stereo partly drawn) reads 0

6 structures already listed, sorted by length of the SMILES, ascending:
Labels used below – A = PolyA inhibitor; B = GSK3B inh; C = GSK3A inh; D = AI-2 QS mod
canonical_smiles: Cc1nc(-c2ccc(NC(=O)c3cccs3)cc2)cs1
  A = i; B = 1; C = 2; D = 10

canonical_smiles: CC(=O)c1nc2ccccc2n1S(=O)(=O)c1ccc(Cl)cc1
  A = i; B = 1; C = -4; D = 34

canonical_smiles: CN/C(=C/[N+](=O)[O-])NCCSCc1ccc(CN(C)C)o1
  A = i; B = -2; C = 0; D = 17

canonical_smiles: Cc1nc2ccc(S(=O)(=O)NCC(=O)NCCN3CCCCCC3)cc2s1
  A = i; B = 3; C = -3; D = 11

canonical_smiles: Cc1cn([C@H]2C[C@H](N=[N+]=[N-])[C@@H](CO)O2)c(=O)[nH]c1=O
  A = i; B = 1; C = -4; D = ?

canonical_smiles: CCN(CC)CCCCNc1ncc2cc(-c3cc(OC)cc(OC)c3)c(NC(=O)NC(C)(C)C)nc2n1
  A = i; B = -4; C = -3; D = 9
